LANA-H2B inh – blocks KSHV LANA binding to histone H2A/H2B; Q9QR71; actives 0.6% (n = 320,000); inhibition, % (test concentration not listed); cell-free LANA-H2A/H2B peptide, fluorescence polarization; in the data active = inhibition mostly above about 10%, no sharp cut-off; inactive = mostly below about 6.7%;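 also: stock transfer was 7.5 nL into about 10 µL; 0% = median of vehicle wells and 100% = median of positive control wells; one replicate is shown; the record names a cut of 25% in any replicate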
Beta2AR agonist – agonists of human beta-2 adrenergic receptor inducing internalization; P07550; actives 0.43% (n = 340,000); response, % (concentration not given with the values); Am2.2-beta2AR cells, FAP receptor internalization, flow cytometry; reference of the scale not given here; AID 504454;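 active = response above a set limit, near 3 SD of response in nonfluorescent compounds, cut at about 42% in these data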;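 also: stock transfer was 100 nL into about 11 µL; a reference agonist was the positive control; negative values mostly stem from fluorescent compounds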
Target sequence (P07550 whole entry, looked up): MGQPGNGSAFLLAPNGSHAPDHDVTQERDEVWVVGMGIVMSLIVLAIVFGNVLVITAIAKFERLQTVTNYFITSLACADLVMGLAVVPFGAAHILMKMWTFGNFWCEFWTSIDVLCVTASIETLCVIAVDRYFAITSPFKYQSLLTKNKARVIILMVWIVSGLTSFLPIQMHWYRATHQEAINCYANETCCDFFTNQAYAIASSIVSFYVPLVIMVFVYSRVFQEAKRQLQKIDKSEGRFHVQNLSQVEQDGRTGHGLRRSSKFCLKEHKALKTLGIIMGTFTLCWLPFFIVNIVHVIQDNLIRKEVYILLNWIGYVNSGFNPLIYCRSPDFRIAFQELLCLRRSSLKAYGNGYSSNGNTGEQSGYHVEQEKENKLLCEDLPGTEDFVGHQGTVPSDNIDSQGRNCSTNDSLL
Beta apoptosis – blocks beta cell apoptosis; actives 0.8% (n = 300,000); protection from apoptosis, % (concentration not given with the values); INS-1E cytokine-induced death, ATP luminescence, 48 h; percent of positive-control rescue, neutral wells zero;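 active = all replicates at 75% or more, or half of them and the mean; inconclusive = half reach 75% but not the mean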;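 also: 0% = cytokine-treated negative control wells and 100% = positive control rescue; higher means more ATP so stronger rescue from cytokine killing; wells of about 40 µL received 100 nL stock; the first replicate is given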
Calb FLC – C. albicans growth modulation with fluconazole; growth inhibition, % (test concentration not listed); AID 1979; actives 0.57% (n = 300,000); C. albicans CaCi-2 (fluconazole-resistant clinical isolate) + fluconazole, Alamar Blue growth, 48 h;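 active = most replicates above 75%; inconclusive = exactly half above 75%; inactive = most below 75%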;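 also: all wells also contain fluconazole at 8 µg/ml as a sub-toxic cotreatment; 0% = median of DMSO wells and 100% = median of geldanamycin control wells; wells of about 8 µL received 7.5 nL stock; the first replicate is given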
RanGTP-Imp inh – disruptors of Ran-importin-beta complex formation – biochemical, FRET, CFP-Ran, YFP-importin-beta, homogeneous, primary screen. AID 2216. cell-free CFP-Ran/YFP-importin-beta FRET ratio. actives 1.1% (n = 300,000). inhibition, % (test concentration not listed);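 active = most replicates above 15%; inconclusive = exactly half above 15%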;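 also: 0% = DMSO wells and 100% = Ran loaded with GDP instead of GTP; wells of about 40 µL received 100 nL stock; the first replicate is given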
Bfl-1 A1 inh – inhibitors of the anti-apoptotic protein A1, read as caspase activation. AID 2462. caspase activation, % (concentration not given with the values). actives 0.066% (n = 330,000). MEF A1-2A-BIM cells, Caspase-Glo 3/7 luminescence, 3 h; percent of clofoctol response, vehicle zero;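 active = over half of replicate activation scores above 10%, or exactly half above 10 with the replicate mean above 10; inconclusive = replicate mean below 10 yet half the replicates above 10; inactive = over half of replicates below 10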;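 also: wells of about 30 µL received 50 nL stock; many hits fall short of the cut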
T cruzi inh – T. cruzi replication inhibition. AID 1885. actives 1.4% (n = 300,000). T. cruzi beta-gal in NIH3T3, luminescence, 90 h. inhibition, % (test concentration not listed);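 active = mean inhibition across valid replicates above about 55%, limit read from the data; inconclusive = mean below that limit but half or more replicates reach it; inactive = mean below it, under half of replicates reach it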;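 also: signal also drops with host cell toxicity which is not excluded here; 0% = plate median of DMSO wells and 100% = zero luminescence signal; higher percent means less beta-gal luminescence so fewer parasites; stock transfer was 50 nL into about 50 µL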
UCH37 inh – blocks the human deubiquitinase UCH37; actives 0.33% (n = 330,000); purified proteasome/UCH37, Ub-AMC cleavage fluorescence; Q9Y5K5; AID 588478; inhibition, % (concentration not given with the values);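 active = mean of two replicates above 20%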;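 also: 0% = compound-free wells with enzyme and 100% = wells lacking proteasome; stock transfer was 100 nL into about 20 µL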
Target sequence (Q9Y5K5 whole entry, looked up): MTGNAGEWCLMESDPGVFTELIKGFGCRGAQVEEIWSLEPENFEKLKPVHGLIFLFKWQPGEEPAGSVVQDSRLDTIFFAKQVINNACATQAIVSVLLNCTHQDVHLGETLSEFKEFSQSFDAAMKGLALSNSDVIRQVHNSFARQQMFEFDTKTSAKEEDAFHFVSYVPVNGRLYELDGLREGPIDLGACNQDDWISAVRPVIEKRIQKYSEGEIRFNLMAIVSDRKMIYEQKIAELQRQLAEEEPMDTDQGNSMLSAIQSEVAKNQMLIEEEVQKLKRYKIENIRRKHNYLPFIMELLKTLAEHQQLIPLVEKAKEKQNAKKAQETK
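Assay system: Proteasome-bound UCH37. Buffer or medium: pH 7.4 Tris-HCl (50 mM) with ovalbumin, ATP-MgCl2, DTT. Incubation: 30 min preincubation with enzyme, 25 min cleavage at room temperature. Measured by: fluorescence, ex 355 nm, em 460 nm. Read-out basis: percent inhibition. Control set: wells without proteasome as full block, compound-free enzyme plus substrate as uninhibited.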
Active calls of the source: *; ? = inconclusive; · = not tested or not shown.

Values in the order – UCH37 inh	T cruzi inh	Beta2AR agonist	LANA-H2B inh	Bfl-1 A1 inh	Beta apoptosis	Calb FLC	RanGTP-Imp inh
- CCOc1ccc(CCNC(=O)c2nnn(CC(=O)Nc3ccccc3C)c2N)cc1OCC
  6.5	7	-2	-2.0	0.0	-2	-12	1.7
- Cc1ccc(NC(=O)C(=O)NNC(=O)c2ccccc2C)cc1Cl
  4.0	-1	-4	6.1	0.4	-2	42	4.8
- CCc1ccc(NC(=O)CCn2c(=O)c3cccn3c3ccccc32)cc1
  2.3	36	19	-6.9	-0.9	49	1	-1.6
- Cc1ccc(S(=O)(=O)N2CCOCC2)cc1C(=O)OCC(=O)NC1CCS(=O)(=O)C1 (stereo not given)
  0.8	-1	9	0.2	-0.4	-8	0	2.5
- C=CCOc1ccccc1CN1CCC(Oc2cc(C(=O)NC3CC3)ccc2OC)CC1
  -3.0	18	-11	4.7	-2.0	-3	-1	4.2
- N#CC(C(=O)c1ccco1)c1ccccn1 (stereo not given)
  11	-9	2	-2.9	0.3	3	18	-3.5
- CCOc1ccc(NC(=O)N2CCC(c3nc4ccccc4[nH]3)CC2)cc1
  3.3	-10	-10	2.6	0.3	-1	-18	2.0
- COc1cc(/C=N/NC(=O)c2ccc(Cl)c(S(N)(=O)=O)c2)ccc1OCC(N)=O
  ·	-8	-8	5.1	-0.1	-7	-5	5.0
- CCN(CC(=O)NCc1ccc(Cl)cc1)C(=O)c1ccc(S(=O)(=O)NCc2ccco2)cc1
  0.1	-7	3	9.5	0.1	0	6	-4.8
- CC(O)C1CCC2C3CC[C@H]4CC(O)CCC4(C)C3CC3(OCCO3)C12C (stereo not given in full)
  0.2	6	3	0.0	-0.2	11	2	3.1
- O=C(/C=C/c1ccc(OCCCF)cc1)NCc1ccc(Cl)cc1
  4.3	-9	-6	-2.0	-0.9	20	3	-3.6
- O=C(NC(=S)NC1CCCc2ccccc21)c1ccco1 (stereo not given)
  0.0	5	-5	-1.2	0.4	4	27	-1.1
- COc1ccc(N2CCN(S(=O)(=O)CCNC(=O)CCCc3ccccc3)CC2)cc1
  4.9	1	-1	1.0	1.6	·	-1	1.4
- Cc1cnccc1CN(C)Cc1cn(C)nc1-c1cccc(Cl)c1
  2.7	-13	3	0.0	0.5	2	-2	2.6
- CC(C)CNC(=O)CCc1c[nH]c2ccccc12
  -0.3	·	2	7.9	0.9	1	·	·
- COc1ccc(Cl)cc1NC(=O)CN(C)CC(=O)Nc1ccccc1-c1ccccc1
  4.3	0	6	-7.2	0.1	13	-8	2.7
- O=C(Oc1cccc2c(O)cccc12)c1ccccc1
  2.4	3	8	0.3	0.1	-8	33	2.7
- CN(C)c1cccc(C(=O)NCc2ccccc2Cl)c1
  -19	6	-8	-3.8	?	0	-18	·
- CC1CCCCC1NC(=O)C1CCN(S(=O)(=O)c2cccc3nsnc23)CC1 (stereo not given)
  -0.3	-4	4	-0.1	-0.1	-6	2	2.6
- O=C(O)CSc1nnc2n(-c3ccccc3)c(=O)c3ccccc3n12
  2.1	-2	4	-5.5	0.7	-1	2	-0.1
- CCOc1ccccc1C(=O)OC(C)C(=O)Nc1ccc(S(=O)(=O)N2CCCC2)cc1 (stereo not given)
  5.0	·	6	2.2	0.3	-3	·	·
- O=C(c1ccncc1)N1N=C2CCCCCC2C1(O)C(F)(F)F (stereo not given)
  2.1	-33	7	3.5	-0.1	-1	-20	-1.3
- NC(=O)c1ccccc1OCC(=O)NS(=O)(=O)c1ccc(Cl)cc1
  0.8	-6	-1	-5.5	0.6	-7	-15	1.8
- COc1cc(C(=O)NCCOC(=O)c2cccc(N(C)C)c2)cc(OC)c1OC
  -9.1	9	5	-3.5	0.2	-1	4	0.4
- COc1ncnc2sc3c(c12)CCCC3
  -1.5	0	3	-0.3	-0.1	-6	0	1.1
- CCCCn1c(-c2csc(C(C)C)c2)n[nH]c1=S
  2.3	0	3	-4.8	2.1	-1	-17	-3.7
- COc1cc2c(cc1OC)CN(C(=O)NS(=O)(=O)c1ccc(C)cc1)CC2
  -23	3	0	-2.1	0.6	·	-5	3.3
- CC(=O)Nc1ccc(CN2CCN(Cc3ccc(F)c(F)c3)C(CCO)C2)cc1 (stereo not given)
  0.7	21	0	2.0	-0.8	5	-22	2.1
- Nc1nc(-c2cc(Cl)cc(Cl)c2OC(F)F)cs1
  4.4	-8	4	0.9	-0.1	-9	2	-0.9
- COc1ccc(CC(=O)Nc2ccccc2C(=O)N2CCCC2)cc1
  0.6	0	-1	4.1	-1.6	-13	-2	0.2
- N#Cc1ccccc1OCC(=O)N1CCN(C(=O)c2ccco2)CC1
  1.3	7	14	8.1	0.4	-2	-5	?
- Cc1nc2ccccc2n1C1CCN(C(=O)Nc2ccccc2)CC1
  0.3	2	2	-2.5	-0.1	·	-8	-0.4
- COc1cccc(OC)c1OC(=O)/C=C/c1ccc(C)o1
  3.0	1	-4	-6.4	-0.2	-3	-23	1.6
- CCN(CC)S(=O)(=O)c1ccc(N2CCCCC2)c(NC(=O)C2=COCCO2)c1
  3.2	47	6	-4.0	-0.1	0	2	-0.6
- Cn1nc(CC(=O)Nc2cccnc2N2CCOCC2)c2ccccc2c1=O
  0.4	2	·	38*	-0.8	-2	-5	0.7
- COC(=O)/C(=C\C(=O)c1ccccc1)Nc1ccc(OC)cc1
  ·	6	1	-3.7	1.1	-1	5	3.4
- NC(=O)C1CCN(c2nnnn2-c2ccccc2)CC1
  1.0	-14	-16	2.5	-1.4	-6	-5	7.6
- CCOC(=O)CC1COCCN1Cc1cn(C)nc1-c1ccccc1F (stereo not given)
  3.9	-14	7	-0.6	0.3	-1	-1	-1.5
- O=c1[nH]c2ccccc2[n+]([O-])c1-c1ccccc1
  -27	-7	-5	5.1	-0.3	-1	44	-1.0
- N/C(=N\NS(=O)(=O)c1ccccc1)c1ccccn1
  2.5	-11	7	4.8	1.9	·	-17	8.2
- CCOc1ccc(CCNC(=O)C2CC(=O)N(Cc3ccc(OC)cc3)C2)cc1OCC (stereo not given)
  -2.0	19	6	0.4	-0.2	-6	-12	-3.3
- COC(=O)c1c(NC(=O)COC(=O)c2ccc(NC(=O)CC#N)cc2)sc2c1CCCCC2
  -3.5	-5	-4	-1.0	1.4	2	-3	-3.5
- Cc1ccc(/C(N)=N/OC(=O)Cc2ccccc2)cc1
  5.6	3	1	-2.3	0.0	5	2	0.6
- Cc1ccccc1N1CCN(S(=O)(=O)Cc2ccccc2)CC1
  2.1	16	5	8.5	-0.3	-6	0	-1.7
- Cc1nn(-c2ccccc2)c(C)c1NC(=O)CCl
  1.6	-32	3	6.2	0.1	-6	-4	7.3
- COc1ccc(Cc2nnc(SCC(=O)Nc3ccc(N4CCOCC4)cc3)n2C)cc1
  0.6	-15	20	-0.4	-0.2	3	22	6.4
- COc1ccc(OCC(=O)NC2CCCCCCC2)cc1
  2.7	9	-5	23	1.1	0	-7	-2.2
- Cc1nc(NC(=O)CSc2nc3cccnc3n2Cc2ccccc2)sc1C
  1.8	2	27	-3.6	0.1	48	-1	0.6
- CCN(CC)c1ccc(C(=O)NNC(=O)CN2C(=O)NC(C)(c3ccccc3)C2=O)cc1 (stereo not given)
  1.2	·	5	0.7	-0.2	-3	·	·
- Cc1ccc2nc(SCc3nnc(-c4ccccc4)o3)[nH]c2c1
  -0.8	-11	-1	1.9	-0.3	0	-5	-1.6

Going on with the list.
Values in the order – UCH37 inh	T cruzi inh	Beta2AR agonist	LANA-H2B inh	Bfl-1 A1 inh	Beta apoptosis	Calb FLC	RanGTP-Imp inh
- O=C(CCC(=O)N1CCN(c2ccc(F)cc2)CC1)c1ccc(Cl)cc1
  -1.1	25	2	1.5	-0.1	-10	-4	-3.7
- O=C1Nc2ccccc2S/C1=C/NCc1ccccc1Cl
  -0.4	5	2	4.9	-0.8	-10	10	0.2
- O=C(c1ccccc1)C1CN(c2ccccc2)CC1c1ccc(Cl)cc1 (stereo not given)
  ·	39	-2	2.1	0.1	-1	-3	6.7
- COc1ccc(C(=O)/C=C/c2cn(CC(O)CN3CCN(C)CC3)c3ccccc23)cc1OC (stereo not given)
  1.1	22	-25	-22	-0.2	-4	-4	-68
- COc1ccc(C2CC(c3ccccc3)=NN2C(=O)COC(=O)COc2ccccc2)cc1 (stereo not given)
  3.5	-2	0	-3.7	0.3	-1	0	-0.4
- Cc1cnc2cc([N+](=O)[O-])ccc2n1
  7.7	2	-3	0.7	0.4	-4	1	0.7
- Cc1ccc(S(=O)(=O)/N=C/c2ccc(N(C)C)cc2)cc1
  ·	-8	1	-1.1	0.4	-5	-11	2.8
- COc1ccc(-c2cc(=O)oc3cc(OC(C)C(=O)NCc4ccccn4)ccc23)cc1 (stereo not given)
  -6.4	4	-19	0.8	-0.7	-2	15	-1.6
- CC(C)CC(NC(N)=O)C(=O)OCC(=O)Nc1ccc(OC(F)F)cc1 (stereo not given)
  1.3	-10	-2	-0.5	0.1	1	16	3.8
- CCCCCC(=O)NNC(=S)NC(=O)c1cccc([N+](=O)[O-])c1
  0.5	-28	-11	2.0	-1.2	0	85*	2.1
- Cc1ccc(C(=O)C2=C(O)C(=O)N(Cc3ccccc3)C2c2cccnc2)o1 (stereo not given)
  10	-22	-3	1.6	-0.2	-4	4	4.4
- Cc1ccc(S(=O)(=O)N2CCN(CC(=O)N/N=C/C=C/c3ccccc3)CC2)cc1
  ·	-15	2	0.9	-0.8	-5	-2	-18
- Cc1c(C(=O)N(C)CCC#N)oc2ccc(S(=O)(=O)N3CCOCC3)cc12
  0.6	-13	6	2.5	-0.7	-5	14	-2.0
- COC(=O)c1ccc(Nc2nc(C)cc(=O)[nH]2)cc1
  0.9	7	-2	-4.1	-0.1	-1	-4	-1.5
- CCCCn1c(N)c(N(CC(C)C)C(=O)C2CCN(C(=O)c3ccc(F)cc3)CC2)c(=O)[nH]c1=O
  0.5	-2	-2	-2.3	0.0	-4	1	-1.7
- Cc1ccc(C)c(NC(=O)C2CCCN(S(=O)(=O)c3c(C)nn(C)c3C)C2)c1 (stereo not given)
  3.5	-3	-8	-0.3	-0.2	-7	4	-3.1
- O=C(Cc1ccc(S(=O)(=O)N2CCCCC2)s1)Nc1ccc(F)cc1F
  5.6	-4	-11	·	1.0	-12	-5	-2.9
- Cc1cccc(OCc2nnc(SCC(=O)Nc3ncc(C)s3)o2)c1
  0.3	3	-1	1.5	0.3	-1	-4	1.9
- CC(C)c1cccc(-c2ccc3c(c2)S(=O)(=O)c2cccc(C(=O)NCc4ccco4)c2C3=O)c1
  7.1	·	5	4.6	1.0	4	·	·
- Cc1ccccc1NC(=O)CSc1nnc(-c2ccoc2C)n1CCc1ccccc1
  5.2	-4	10	-3.9	-1.2	1	3	-1.9
- CCC(=O)c1coc2ccc(O)cc12
  4.5	-9	3	-1.3	-0.4	-5	3	2.2
- O=C(C1COc2ccccc2O1)N1CCN(Cc2ccccc2)CC1 (stereo not given)
  3.0	1	6	-2.8	0.1	-4	0	5.5
- CCc1ccc(NC2CC(=O)N(CCc3ccc(OC)c(OC)c3)C2=O)cc1 (stereo not given)
  2.5	4	3	-6.2	1.0	-1	2	0.0

Screening results (PubChem)
